Screening results from PubChem.
KCNQ2 pot = enhances the rat KCNQ2 potassium channel; O88943; CHO-K1 KCNQ2, FluxOR thallium flux fluorescence; hits give high values; B-score at 10 µM; 310,000 tested, 0.54% active;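 active = fluorescence ratio B-score at least 3 SD of library B-scores, with initial fluorescence B-score within 3 SD, cut at about 5.3 in these data; same plate scores as AID 2156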;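 also: B-score of peak minus minimum over baseline fluorescence ratio after K+ and Tl+ stimulus; positive B-score means potentiation of KCNQ2 with more thallium influx and brighter signal; only the inactives scoring about 0 or higher are listed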
Target sequence (O88943 whole entry, looked up): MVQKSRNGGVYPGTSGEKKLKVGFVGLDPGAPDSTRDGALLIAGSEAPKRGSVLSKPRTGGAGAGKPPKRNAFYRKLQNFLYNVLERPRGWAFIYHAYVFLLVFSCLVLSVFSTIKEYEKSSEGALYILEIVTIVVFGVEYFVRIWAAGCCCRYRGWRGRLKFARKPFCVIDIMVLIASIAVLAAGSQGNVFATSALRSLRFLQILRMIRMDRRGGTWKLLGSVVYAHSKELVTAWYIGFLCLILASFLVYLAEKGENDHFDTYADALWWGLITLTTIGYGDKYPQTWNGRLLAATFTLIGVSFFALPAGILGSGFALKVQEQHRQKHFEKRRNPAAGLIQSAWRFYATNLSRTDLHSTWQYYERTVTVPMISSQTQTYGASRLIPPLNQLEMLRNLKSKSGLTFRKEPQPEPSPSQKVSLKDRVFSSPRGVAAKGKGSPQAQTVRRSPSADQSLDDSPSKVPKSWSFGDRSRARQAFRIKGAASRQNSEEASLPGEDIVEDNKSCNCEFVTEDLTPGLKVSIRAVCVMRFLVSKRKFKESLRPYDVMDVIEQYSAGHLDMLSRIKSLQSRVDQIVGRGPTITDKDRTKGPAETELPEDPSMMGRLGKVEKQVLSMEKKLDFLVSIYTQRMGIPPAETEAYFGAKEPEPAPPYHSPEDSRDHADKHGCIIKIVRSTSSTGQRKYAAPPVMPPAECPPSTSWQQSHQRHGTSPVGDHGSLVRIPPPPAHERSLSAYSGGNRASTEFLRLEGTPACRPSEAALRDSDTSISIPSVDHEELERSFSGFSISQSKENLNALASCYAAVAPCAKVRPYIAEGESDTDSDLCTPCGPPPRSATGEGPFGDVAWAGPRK
KCNQ2 pot baseline = also measured in KCNQ2 pot; calls as there; B-score; compound at 10 µM; measured here: initial fluorescence intensity artifact check;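 brightness before thallium and not channel activity; 0 = typical well and far values either way flag optical interference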
Starred values were filed as active, the others as inactive. An excerpt. The share of hits here may be higher or lower than overall.

Results for COc1ccc(-c2nnc(-c3ccccc3O)o2)cc1 ?
KCNQ2 pot: 1.58; KCNQ2 pot baseline: 1

Results for C=Cc1ccc(CN2CCCN(Cc3ccc(Cl)cc3)S2(=O)=O)cc1 ?
KCNQ2 pot: 0.02; KCNQ2 pot baseline: 4.18

How did CCN(CC(=O)Nc1ccc2c(c1)OCCO2)S(=O)(=O)c1cccs1 do in these assays?
KCNQ2 pot: 1.25; KCNQ2 pot baseline: -0.33

What do the screens show for `CC(C)(C)NC(=O)COC(=O)/C=C/c1ccccc1[N+](=O)[O-]`?
KCNQ2 pot: 0.82; KCNQ2 pot baseline: -0.78

How did NNc1nc2c(-c3cccc(C(F)(F)F)c3)nnn2c2ccccc12 do in these assays?
KCNQ2 pot: 0.02; KCNQ2 pot baseline: 0.69

Results for CC(C(=O)NCCCc1ccccc1)c1ccc([N+](=O)[O-])cc1 (stereo not given) ?
KCNQ2 pot: 0.26; KCNQ2 pot baseline: -2.56

What do the screens show for `COc1ccc2cc(C(=O)NCc3ccco3)c(=Nc3ccc(C(=O)O)cc3)oc2c1`?
KCNQ2 pot: 2.59; KCNQ2 pot baseline: 0.31

What do the screens show for `COC(=O)c1ccc(C2/C(=C(/O)c3ccc(OC(C)C)cc3)C(=O)C(=O)N2c2cc(C)on2)cc1` (stereo not given)?
KCNQ2 pot: 0.33; KCNQ2 pot baseline: 1.44

What do the screens show for `O=C(NCc1ccccn1)c1ccc(S(=O)(=O)Nc2ccccc2F)cc1`?
KCNQ2 pot: 1.15; KCNQ2 pot baseline: 0.71

What do the screens show for `CC1CCN(S(=O)(=O)c2ccc3c(c2)N(CC(=O)N(C)Cc2ccco2)C(=O)CO3)CC1`?
KCNQ2 pot: 0.11; KCNQ2 pot baseline: -0.56

Five compounds drawn at random from the list so far, as already listed:
What do the screens show for `COc1ccc2cc(C(=O)NCc3ccco3)c(=Nc3ccc(C(=O)O)cc3)oc2c1`?
KCNQ2 pot: 2.59; KCNQ2 pot baseline: 0.31

What do the screens show for `O=C(NCc1ccccn1)c1ccc(S(=O)(=O)Nc2ccccc2F)cc1`?
KCNQ2 pot: 1.15; KCNQ2 pot baseline: 0.71

Results for CC(C(=O)NCCCc1ccccc1)c1ccc([N+](=O)[O-])cc1 (stereo not given) ?
KCNQ2 pot: 0.26; KCNQ2 pot baseline: -2.56

Results for C=Cc1ccc(CN2CCCN(Cc3ccc(Cl)cc3)S2(=O)=O)cc1 ?
KCNQ2 pot: 0.02; KCNQ2 pot baseline: 4.18

What do the screens show for `COC(=O)c1ccc(C2/C(=C(/O)c3ccc(OC(C)C)cc3)C(=O)C(=O)N2c2cc(C)on2)cc1` (stereo not given)?
KCNQ2 pot: 0.33; KCNQ2 pot baseline: 1.44

Next part:
What do the screens show for `Cn1cc(C(=O)N2CCCCCC2)c(=O)c2cc(S(=O)(=O)N3CCCCC3)ccc21`?
KCNQ2 pot: 0.2; KCNQ2 pot baseline: -0.05

What do the screens show for `CC(C)(C)C(=O)NC1(C(F)(F)F)NC(=O)N(c2ccc(F)cc2)C1=O` (stereo not given)?
KCNQ2 pot: 2.68; KCNQ2 pot baseline: -0.42

What do the screens show for `Cc1cc2c(c(=O)o1)C(c1ccc([N+](=O)[O-])o1)C(C#N)=C(N)O2` (stereo not given)?
KCNQ2 pot: 7.7*; KCNQ2 pot baseline: -0.88*

What do the screens show for `CSc1nnc(-c2ccc(C(F)(F)F)cn2)o1`?
KCNQ2 pot: 2.37; KCNQ2 pot baseline: 0.68

Results for COc1ccc(OCC2CCCN(Cc3nc(CC4CC4)no3)C2)cc1 (stereo not given) ?
KCNQ2 pot: 2.08; KCNQ2 pot baseline: 0.16

Results for Brc1ccc(Cn2c(-c3cncs3)nc3ccccc32)cc1 ?
KCNQ2 pot: 0.25; KCNQ2 pot baseline: 1.01

How did CC1CC(C)CN(C(=O)c2cn(C)c3ccc(S(=O)(=O)N(C)C)cc3c2=O)C1 (stereo not given) do in these assays?
KCNQ2 pot: 1.81; KCNQ2 pot baseline: -0.32

How did Cc1c(CN(C)CCc2ccccc2)c(=O)n(-c2ccccc2)n1C do in these assays?
KCNQ2 pot: 1.96; KCNQ2 pot baseline: -1.65

How did O=C(c1ccc(CS(=O)(=O)c2ccccc2)o1)N1CCN(c2ncccn2)CC1 do in these assays?
KCNQ2 pot: 0.53; KCNQ2 pot baseline: 2.33

What do the screens show for `CCS(=O)(=O)c1ccc2oc(Nc3ccc(C(C)C)cc3)nc2c1`?
KCNQ2 pot: 2.21; KCNQ2 pot baseline: 1.4

How did O=C(COc1cnc2ccccc2n1)NCCC1=CCCCC1 do in these assays?
KCNQ2 pot: 1.68; KCNQ2 pot baseline: -3.27

What do the screens show for `CCOC(=O)NNc1ccc2nonc2c1[N+](=O)[O-]`?
KCNQ2 pot: 2.91; KCNQ2 pot baseline: -0.16

What do the screens show for `Cc1cc(C)c2[nH]c(=O)c(C(c3nnnn3C(C)(C)C)N3CCN(C(=O)c4ccco4)CC3)cc2c1` (stereo not given)?
KCNQ2 pot: 0.01; KCNQ2 pot baseline: 0.01

How did NC(=S)Nc1ccc(F)cc1F do in these assays?
KCNQ2 pot: 1.79; KCNQ2 pot baseline: -1.52

Results for CC1CCCCN1C(=O)CCS(=O)(=O)c1cc2c(cc1Cl)NC(=O)CO2 (stereo not given) ?
KCNQ2 pot: 0.98; KCNQ2 pot baseline: 0.26

What do the screens show for `CC(C)c1ccc(NC(=S)NN2CCN(C)CC2)cc1`?
KCNQ2 pot: 1.23; KCNQ2 pot baseline: 0.89

How did COc1cccc(C(=O)Cn2c(=O)n(CCC(=O)NCC3CCCO3)c(=O)c3cc(OC)c(OC)cc32)c1 (stereo not given) do in these assays?
KCNQ2 pot: 0.12; KCNQ2 pot baseline: 1.96

Results for Cc1cc(-c2ccc(C(=O)O)s2)cnc1N ?
KCNQ2 pot: 0.45; KCNQ2 pot baseline: -1.07

What do the screens show for `CCOC(=O)c1cnn2c(C(F)(F)F)cc(-c3ccco3)nc12`?
KCNQ2 pot: 2; KCNQ2 pot baseline: -2.08

Results for CSCC[C@H](NC(=O)N1CCn2c1nc1ccccc12)C(=O)NCc1ccc2c(c1)OCO2 ?
KCNQ2 pot: 1.38; KCNQ2 pot baseline: -2.05

How did Cc1c(N(C)C(=O)COc2ccc3ccccc3c2)c(=O)n(-c2ccccc2)n1C do in these assays?
KCNQ2 pot: 0.02; KCNQ2 pot baseline: -1.42

Results for CC(C)Cc1cc(C(=O)O)c2ccccc2n1 ?
KCNQ2 pot: 0.01; KCNQ2 pot baseline: -0.34

How did O=S(=O)(CCc1ccncc1)Cc1ccc2c3c(cccc13)CC2 do in these assays?
KCNQ2 pot: 1.94; KCNQ2 pot baseline: -2.43

How did COCCCNC(=O)c1ccc2nc3ccccc3c(=O)n2c1 do in these assays?
KCNQ2 pot: 0.57; KCNQ2 pot baseline: -1.27

How did COCC(=O)NNC(=O)Cc1ccc(Cl)cc1 do in these assays?
KCNQ2 pot: 0.1; KCNQ2 pot baseline: -0.56

What do the screens show for `C=CCOc1ccc(/C(CC)=N/O)cc1OC`?
KCNQ2 pot: 0.67; KCNQ2 pot baseline: -0.03

Results for Cc1nn(-c2ccc(N3CCOCC3)nn2)c(C)c1CCC(=O)Nc1ccc(F)cc1 ?
KCNQ2 pot: 2.09; KCNQ2 pot baseline: -0.07

Results for Cc1ccc(S(=O)(=O)N2CCSC2C(=O)O)cc1 (stereo not given) ?
KCNQ2 pot: 3.39; KCNQ2 pot baseline: -1.79

Results for C=CCn1c(=O)c2c(nc3n2CC(C)CN3c2cccc(OC)c2)n(C)c1=O (stereo not given) ?
KCNQ2 pot: 0.15; KCNQ2 pot baseline: 2.54

What do the screens show for `CCC(C)Nc1nc(N)c([N+](=O)[O-])c(NC2CCCCC2)n1` (stereo not given)?
KCNQ2 pot: 0.46; KCNQ2 pot baseline: -0.34

Results for C/C(=N\NC(=O)C1(C)CC1(Br)Br)c1cccc(NC(=O)C2CCC2)c1 (stereo not given) ?
KCNQ2 pot: 1.19; KCNQ2 pot baseline: -0.81

Results for COc1cccc(OC)c1C(=O)Nc1c(C(=O)N2CCN(C)CC2)oc2ccccc12 ?
KCNQ2 pot: 1.02; KCNQ2 pot baseline: 0.29

What do the screens show for `COc1ccc(C)cc1NC(=O)CN(c1ccc(F)cc1)S(C)(=O)=O`?
KCNQ2 pot: 0.12; KCNQ2 pot baseline: -1.25

What do the screens show for `Cc1ccc(NS(=O)(=O)c2ccc(C(=O)NCCCN3CCCC3=O)cc2)cc1C`?
KCNQ2 pot: 0.19; KCNQ2 pot baseline: 1.06

Results for c1ccc(-c2nnc(C3CC(c4ccncc4)=NO3)o2)cc1 (stereo not given) ?
KCNQ2 pot: 0.19; KCNQ2 pot baseline: -0.2

What do the screens show for `O=C(CN(c1ccc(F)cc1)S(=O)(=O)c1ccccc1)N1CCOCC1`?
KCNQ2 pot: 0.75; KCNQ2 pot baseline: 1.53

What do the screens show for `O=C(Cc1ccc(Nc2nc(=S)[nH]c3ccccc23)cc1)NC1CCCCC1`?
KCNQ2 pot: 0.01; KCNQ2 pot baseline: -0.16

What do the screens show for `COc1ccc(CN=C(N)N=C(N)N)cc1Cl`?
KCNQ2 pot: 0.12; KCNQ2 pot baseline: -0.61

Results for Cc1ccc(OCC(O)Cn2c(=N)n(CCN3CCOCC3)c3ccccc32)cc1 (stereo not given) ?
KCNQ2 pot: 1.17; KCNQ2 pot baseline: 0.02

Results for CCN(CC)C(=O)CSC(=Nc1ccccc1F)NC#N ?
KCNQ2 pot: 0.11; KCNQ2 pot baseline: -0.01

What do the screens show for `C=CCn1c(/N=C/c2ccc3c(c2)OCO3)nc2ccccc21`?
KCNQ2 pot: 0.75; KCNQ2 pot baseline: -0.69

What do the screens show for `COCCn1nnnc1C(c1cccs1)N1CCCC(C)C1` (stereo not given)?
KCNQ2 pot: 1.02; KCNQ2 pot baseline: -0.39

How did CC(=O)/C=C(\C)NCCNc1c(F)c(F)c(CO)c(F)c1F do in these assays?
KCNQ2 pot: 0.75; KCNQ2 pot baseline: 0.38

What do the screens show for `CCn1c(SCc2nc3ccccc3[nH]2)nnc1-c1ccc(OC)cc1`?
KCNQ2 pot: 1.51; KCNQ2 pot baseline: -0.08

Results for CCC/C(=N\NC(=O)Cc1csc(N2CCOCC2)n1)c1ccccc1 ?
KCNQ2 pot: 0.28; KCNQ2 pot baseline: 0.94

How did O=C(NCC(c1cccnc1)N1CCOCC1)NC1CCCCC1 (stereo not given) do in these assays?
KCNQ2 pot: 0.61; KCNQ2 pot baseline: 0.09

What do the screens show for `Cc1ccc(S(=O)(=O)/N=C2\C=C(Nc3cccc(C(=O)O)c3)C(=O)c3ccccc32)cc1`?
KCNQ2 pot: 4.51; KCNQ2 pot baseline: -2.84

Results for O=S(=O)(NC1CCN(Cc2ccccc2)CC1)c1ccc2ccccc2c1 ?
KCNQ2 pot: 1.22; KCNQ2 pot baseline: -0.54

What do the screens show for `COc1ccc(NC(=O)C(=O)N/N=C/c2cccnc2)c(OC)c1`?
KCNQ2 pot: 2.69; KCNQ2 pot baseline: -1.38

What do the screens show for `Fc1ccc(NC(=S)NC2CCCCC2)c(F)c1F`?
KCNQ2 pot: 1.13; KCNQ2 pot baseline: -1.48

What do the screens show for `CCN1CN(CCc2ccccc2)CNC1=S`?
KCNQ2 pot: 0.07; KCNQ2 pot baseline: 1.36

Results for CSc1nc(N)nc(SCC(=O)CC(=O)OC(C)C)c1C#N ?
KCNQ2 pot: 0.81; KCNQ2 pot baseline: 3.77

Results for CC(C)N(C(=O)CN1C(=O)NC2(CCCCCC2)C1=O)C(C)C ?
KCNQ2 pot: 0.33; KCNQ2 pot baseline: -0.01

What do the screens show for `CSC(=NC1CCCCC1)NS(=O)(=O)c1ccccc1`?
KCNQ2 pot: 0.81; KCNQ2 pot baseline: 1.51

Results for N#CCC(=O)NNc1c([N+](=O)[O-])cc(C(F)(F)F)cc1[N+](=O)[O-] ?
KCNQ2 pot: 0.33; KCNQ2 pot baseline: -1.81

How did O=C(NCCc1ccccc1)C1CCCN(c2nc3ccccc3s2)C1 (stereo not given) do in these assays?
KCNQ2 pot: 0.21; KCNQ2 pot baseline: 0.94

What do the screens show for `CC(=O)N1c2ccccc2C2(O)N=C(C)SC12` (stereo not given)?
KCNQ2 pot: 2.28; KCNQ2 pot baseline: 0.44

How did CC(=O)c1cccc(OCC(O)CNCCc2ccc(Cl)cc2)c1 (stereo not given) do in these assays?
KCNQ2 pot: 0.27; KCNQ2 pot baseline: 0.7

What do the screens show for `CCN1CCN(c2ccc(S(=O)(=O)N3CCCCC3)cc2NC(=O)/C=C/c2ccc(OC)c(OC)c2)CC1`?
KCNQ2 pot: 0.06; KCNQ2 pot baseline: 0.02

What do the screens show for `COc1ccc(Cl)cc1NC(=O)c1cccc(NC(=O)CCC(=O)O)c1`?
KCNQ2 pot: 0.57; KCNQ2 pot baseline: -1.63

What do the screens show for `CC(=O)c1cnc2cc(-c3ccc(C)cc3)nn2c1C`?
KCNQ2 pot: 0.92; KCNQ2 pot baseline: -2.54

Results for Cc1ccc(/C(O)=C2/C(=O)C(=O)N(CCN3CCOCC3)C2c2cccs2)cc1 (stereo not given) ?
KCNQ2 pot: 2.36; KCNQ2 pot baseline: -1.17

Results for Cc1ccc(C)c(NC(=O)C2CC(Cl)=CCC2C(=O)O)c1 (stereo not given) ?
KCNQ2 pot: 0.19; KCNQ2 pot baseline: 1.67

Molecules listed so far that contain an aryl thioether with sulfur outside any ring (3):
What do the screens show for `CSc1nnc(-c2ccc(C(F)(F)F)cn2)o1`?
KCNQ2 pot: 2.37; KCNQ2 pot baseline: 0.68

What do the screens show for `CCn1c(SCc2nc3ccccc3[nH]2)nnc1-c1ccc(OC)cc1`?
KCNQ2 pot: 1.51; KCNQ2 pot baseline: -0.08

Results for CSc1nc(N)nc(SCC(=O)CC(=O)OC(C)C)c1C#N ?
KCNQ2 pot: 0.81; KCNQ2 pot baseline: 3.77
